gsp antag – gsp mutant antagonism; Potency, µM (titrated, usually from 76.9 µM), for the others: at the top dose activity change, negative = inhibition, hits mostly inhibitors; AID 624288; gsp-mutant cells, cAMP HTRF, 30 min; control for the full effect not named in the record; 0.4% of 340,000 active; active = falling curve of any shape with a large fitted effect; inconclusive = falling curve, mostly with a smaller effect; inactive = flat or rising curve; cell line not stated here;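 further: intracellular cAMP measured with PDE inhibitor Ro 20-1724 present during compound exposure; potency means the concentration at half of the fitted maximal effect; on the % scale 0 is the no-effect control and ±100 the full control effect; nearly all actives have a fitted effect of over 65% in size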
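Measurement of cellular cAMP by homogeneous time-resolved fluorescence following a 30 min compound exposure at 37C. The PDE inhibitor […] was present throughout; the assay buffer was DPBS with 0.05% BSA and 0.005% Tween 20.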
D2 ag – agonists of human D2 dopamine receptor (beta-arrestin) | DiscoveRx PathHunter D2 beta-arrestin, luminescence, 90 min; 100% = 57 uM dopamine signal | activation, % (test concentration not listed) | 0.084% of 360,000 active | P14416; in the data active = activation above about 40%; inconclusive = about 15% to 40%; inactive = below about 15%; further: compound concentration not given in the record; the text of the record calls up to 30% inactive
Target sequence (P14416 whole entry, looked up): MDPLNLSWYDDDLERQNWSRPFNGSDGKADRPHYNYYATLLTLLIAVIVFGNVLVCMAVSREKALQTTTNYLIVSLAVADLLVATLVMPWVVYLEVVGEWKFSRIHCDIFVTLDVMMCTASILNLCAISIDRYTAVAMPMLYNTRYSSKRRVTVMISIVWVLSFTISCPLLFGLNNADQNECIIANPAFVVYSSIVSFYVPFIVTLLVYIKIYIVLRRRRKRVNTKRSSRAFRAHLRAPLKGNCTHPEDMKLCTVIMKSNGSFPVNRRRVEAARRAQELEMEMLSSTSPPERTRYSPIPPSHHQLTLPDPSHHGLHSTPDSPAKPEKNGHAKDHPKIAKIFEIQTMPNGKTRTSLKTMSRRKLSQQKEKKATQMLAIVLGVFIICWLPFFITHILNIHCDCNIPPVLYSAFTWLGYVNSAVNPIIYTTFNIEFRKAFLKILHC
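Agonist mode: compounds alone added to overnight-plated D2 PathHunter cells for 90 min at 37 C, with 57 uM final dopamine (EC100) defining full response. Beta-arrestin recruitment detected by chemiluminescent reagent, read after 1 h at ambient temperature.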
gsp agonist – activates gsp, the McCune-Albright syndrome mutation; gsp mutant cells, cAMP HTRF, 30 min; control for the full effect not named in the record; Potency, µM (titrated, usually from 76.9 µM), without a hit: at the highest dose activation (cAMP increase), actives largely listed as activators; 0.13% of 340,000 active; AID 624287; active = well fitted activation curve with a large enough effect; inconclusive = small, poorly fitted or top-dose-only effect, or another doubt; inactive = no such curve, though single readings can be large or run the other way; cell line not stated here;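 further: phosphodiesterase inhibitor Ro 20-1724 added with compounds to block cAMP breakdown; potency means the concentration at half of the fitted maximal effect; nearly all actives have a fitted effect of over 60% in size; about a fifth of the inactives were tested at one dose only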
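Cells stably selected in G418 were plated at 2000/well, grown 16-24 hr, then given compounds in DMSO with the PDE inhibitor […] (300 uM solution added) for 30 min at 37C; cAMP was read by HTRF.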
ClpP mod – qHTS Assay for Activators of ClpP; Potency, µM (doses to about 57.5 µM), for the others: top-dose activity change, negative = active; purified B. subtilis ClpP, FRET peptide cleavage, 20 min; AID 651965, 2013; 1.9% of 340,000 active; ATP-dependent Clp protease proteolytic subunit (Bacillus subtilis (strain 168)), P80244; active = well fitted falling curve with a large enough effect; inconclusive = small, poorly fitted or top-dose-only effect; inactive = no such curve, though single readings can be large or run the other way; further: potency means the concentration at half of the fitted maximal effect; the source files actives as falling curves though it sought activators and does not explain the sign; nearly all actives have a fitted effect of over 65% in size; many hits overshoot -100%
Target sequence (P80244 whole entry, looked up): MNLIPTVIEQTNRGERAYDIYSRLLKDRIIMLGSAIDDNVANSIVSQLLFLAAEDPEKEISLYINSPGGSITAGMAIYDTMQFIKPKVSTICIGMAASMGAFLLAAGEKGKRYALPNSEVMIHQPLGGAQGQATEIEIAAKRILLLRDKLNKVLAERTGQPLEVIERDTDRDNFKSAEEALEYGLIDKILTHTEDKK
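ClpP 10 microg/mL final, pH 8 Tris/KCl buffer with BSA, glycerol, Tween-20; compound pinned in; FRET-FV substrate; RT 20 min; Ex320/Em430; ΔFRET vs ADEP 5.8 microM, DMSO, no enzyme.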
Menin-MLL FL inh – menin-MLL binding inhibition, fluorescein peptide | FP activity change, % at 61.4 µM | 290,000 tested, under 10 active | AID 1766 | Fluorescence polarization, fluorescein-MLL peptide displacement from menin; inconclusive = falling polarisation curve, or a change in total fluorescence; inactive = total fluorescence flat and polarisation flat or rising; no compound was filed as active; the % refers to the polarisation; negative = inhibition;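 further: % of control where 0% means no effect; inhibitors lower the polarisation; unlabelled MLL peptide was the positive control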
PINK1 modulator – modulators of PINK1 expression; PINK1 immunofluorescence, high-content cytometry, 24 h; Potency, µM (titrated, usually from 76.6 µM), inactives show at the highest dose activation (PINK1 increase), actives largely listed as activators; 0.2% of 410,000 active; AID 624263; active = well fitted activation curve with a large enough effect; inconclusive = small, poorly fitted or top-dose-only effect; inactive = flat fitted curve, though single readings scatter; cell line not stated here;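 further: potency means the concentration at half of the fitted maximal effect; % of control where 0% means no effect; nearly all actives have a fitted effect of over 65% in size; a mitochondrial uncoupler was the plate control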
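Measures PINK1 amount and localization on or inside mitochondria by immunofluorescence. Stable cells get compounds at 5 concentrations for 24 hours before fixation and staining; CCCP controls included.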
Sfp PPTase inh – inhibitors of Bacillus subtilis Sfp phosphopantetheinyl transferase; Q9F4F7; Biochemical Sfp PPTase activity, qHTS; Potency, µM, for inactives: max response, negative = inhibition, hits mostly inhibitors; 3.5% of 310,000 active; AID 1490; active means well fitted inhibition curve with a large enough effect; inconclusive means small, poorly fitted or top-dose-only effect, or another doubt; inactive means no such curve, though single readings can be large or run the other way;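 further: the enzyme is Sfp with the accession as filed and its product quenches rhodamine fluorescence; potency means the concentration at half of the fitted maximal effect; 0% = enzyme reaction without inhibitor and -100% = no enzyme wells; top concentration of the series not given in the record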
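Reaction rates are the 30-min fluorescence difference (ex 525, em 598 nm) in wells containing 15 nM Sfp, 5 uM rhodamine-CoA and 12.5 uM BHQ-2-YbbR at pH 7.6 with 10 mM MgCl2.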
Numbers without * were called inactive; ? = inconclusive; . = not tested or not shown; & = joins results of further samples; [ ] = remark or other dose.

SMILES	gsp antag	D2 ag	gsp agonist	ClpP mod	Menin-MLL FL inh	PINK1 modulator	Sfp PPTase inh
CCCCNC(=O)COC(=O)C1CCN(S(=O)(=O)c2ccc3c(c2)OCCO3)CC1	-20.5%	-4.7	-12.5%	-2.0%	.	1.3%	.
Fc1ccc(NC(=S)NN2CCOCC2)cc1Cl	8.8%	-10.1	-0.6%[15.4 µM]	0.6%	1.1	-0.3%	-20.6%
Cc1ccnc(N(C(=O)c2cccs2)C(=O)c2cccs2)c1	11.9%	-2.2	15.0%	-2.3%	0.8	-4.6%	25.6%
Cc1ccccc1C(=O)NCCNC(=O)c1cnccn1	-1.5%	-1.9	6.1%[15.4 µM]	.	2.1	0.5%	16.9%
NC(=O)Cn1cc(/C=N\NS(=O)(=O)c2ccc(F)cc2)c2ccccc21	-3.5%	-3.3	2.4%[15.4 µM]	0.5%	.	3.8%	-1.4%
COC(=O)c1c(NC(=O)COC(=O)[C@@H](NS(=O)(=O)c2ccc(C)cc2)C(C)C)sc2c1CCC2	-20.4%	-0.3	3.1%[15.4 µM]	28.2µM*	2.6	0.1%	-10.1%
Nc1nc2c(ncn2[C@@H]2O[C@H](CNS(=O)(=O)N3CCc4ccccc4C3)[C@@H](O)[C@H]2O)c(=O)[nH]1	.	-5.6	.	-0.9%	.	0.9%	.
COC(=O)c1ccc(OCC(=O)c2cccc(OC)c2)cc1	4.0%	3.3	19.9%	-1.3%	-9.0	4.8%	-3.3%
Cc1nc2sccc2c(=O)n1N	-12.7%	-18.1	-15.3%	2.3%	-6.2	-0.6%	25.6%
NC(=O)c1ccsc1NC(=O)c1ccc(S(=O)(=O)N2CCCc3ccccc32)cc1	?	0.7	-48.1%[inhibitor]	-13.1%	11.7	1.5%	6.2%
CN(CC(=O)NC1CCCCC1)S(=O)(=O)c1ccc(Cl)cc1	8.4%	1.7	-3.6%	-1.7%	2.0	6.9%	2.8%
Cc1[nH]c(=O)c(C#N)c(C)c1Cc1ccc(Cl)cc1Cl	0.9%	5.9	1.4%	.	3.6	-1.7%	8.5%
CCO[C@H]1OC(C(=O)N2CCN(Cc3ccccc3)CC2)=C[C@@H](C)[C@@H]1CCCO	0.4%	0.1	.	-1.0%	0.1	-0.1%	-0.7%
C=C1CC(COc2ccc3c(C)c(Cl)c(=O)oc3c2)(c2ccccc2)OC1=O (stereo unspecified)	1.5%	-7.2	25.4%	?	.	-6.5%	.
O=C(NCCN1CCOCC1)c1ccc2c(c1)N(Cc1cccc(Cl)c1)C(=O)c1ccccc1S2(=O)=O	.	-1.9	-3.4%	0.5%	.	-0.7%	.
CCCOc1ccc(C(=O)N2CCN(c3ccc(NC(=O)CC)cc3Cl)CC2)cc1	?	0.3	4.7%	-0.8%	-3.8	2.2%	-9.8%
COc1ccc(N2CCN(C(=O)CCC(=O)c3cc(C)sc3C)CC2)cc1	-9.8%	3.5	17.5%	.	0.5	0.0%	6.1%
CNC(=O)c1ccc(CN(C)C(=O)c2cccc(S(=O)(=O)N3CCc4ccccc4C3)c2)cc1	.	2.5	-102.8%[inhibitor]	-0.6%	.	0.9%	.
CCOc1ccc(NC(=O)CSc2cn[nH]n2)cc1	-2.9%	-5.1	-16.1%[15.4 µM]	0.6%	.	-0.8%	.
O=C(O)CCSCc1ccccc1F	-9.5%	-2.4	10.1%	-4.4%	0.0	2.7%	6.1%
Cc1c(C(=O)N(Cc2nnc(-c3ccccc3Cl)o2)C2CC2)oc2ccccc12	-24.1%	0.7	26.5%	-4.8%	.	1.7%	.
Cc1cccc(OCC(=O)NC(Cc2ccccc2)C(=O)O)c1 (stereo unspecified)	1.3%	0.0	-21.5%	-0.8%	.	1.6%	27.8%
CC(=O)N1CCC(=O)N(C(C)C)c2ccccc21	0.9%	-1.0	?	-1.3%	2.0	-0.9%	22.1%
Cc1ccc(S(=O)(=O)Cn2nnnc2C(c2ccccn2)N2CCN(c3ccccc3)CC2)cc1 (stereo unspecified)	-3.9%	-3.6	-15.7%	-2.2%	3.9	-0.2%[38.3 µM]	-8.3%
CCOC(=O)C(CC)Sc1ncnc2nc[nH]c12 (stereo unspecified)	1.9%	-3.1	-36.3%[inhibitor]	0.0%	4.9	-0.9%	9.6%
COc1c(Cl)cnn(-c2ccc(C)cc2)c1=O	-9.2%	-7.4	-41.4%	-9.4%	7.2	?	6.0%
CCC(C(=O)NC1CCCC1)N(C(=O)c1snc(C(N)=O)c1N)c1ccc(OC)c(OC)c1 (stereo unspecified)	-6.1%	-3.0	13.8%[15.4 µM]	.	-3.4	0.1%	15.6%
COc1ccc(NC(=S)NCc2ccco2)cc1	17.3%	2.2	-16.5%	?	0.7	-0.1%	3.5%
CC(Sc1nncs1)C(=O)NCC(=O)Nc1ccc(F)c(F)c1F (stereo unspecified)	8.2%	3.3	-1.4%	.	2.0	0.6%	11.6%
O=C1CCC/C(=N\NC(=O)c2ccc(COc3cccc4cccnc34)cc2)C1	7.8%	-7.7	14.8%	-3.9%	11.9	5.7%	-11.7%
COc1ccc(C(=O)CSc2nnc(CN3CCCCC3)n2-c2ccc(F)cc2)cc1	1.7%	-3.6	-0.9%[15.4 µM]	.	7.1	-0.2%	-1.3%
CNS(=O)(=O)c1cccc(C(=O)NCC2(N3CCOCC3)CCCCC2)c1	.	-3.7	-7.8%[15.4 µM]	.	2.4	0.1%	10.6%
COc1ccc(CC(=O)N[C@@H]2c3ccccc3CC[C@H]2OCc2ccccc2)cc1	-16.8%	0.1	.	0.8%	.	0.4%	.
O=C(/C=C/c1cccs1)N1CCC2(CC1)Oc1ccc(F)cc1C(=O)C21CC(c2ccccc2)=NO1 (stereo unspecified)	-5.3%	-1.3	.	-6.0%	3.1	3.6%	4.4%
CC(=O)Nc1ccc(NC(=O)Cn2cnc3c(nnn3Cc3ccc(F)cc3)c2=O)cc1	6.1%	-6.7	18.8%	-1.4%	-1.1	-1.0%	-3.3%
OC(CNCc1cccc(Cl)c1)c1ccccc1 (stereo unspecified)	-1.4%	-0.4	12.1%[15.4 µM]	.	-4.1	1.1%	9.7%
O=C(Nc1cccnc1)c1cccc(S(=O)(=O)N2CCOCC2)c1	8.0%	-3.0	-26.7%	-0.5%	3.8	2.9%[38.3 µM]	7.5%
CC(C)C(=O)NNC(=O)c1csc(-c2cccs2)n1	7.8%	-0.7	-31.7%[inhibitor][15.4 µM]	.	0.7	-0.3%	?
C=C(C)C1Cc2c(C)nn(-c3ccccn3)c2C1 (stereo unspecified)	1.9%	-0.7	24.7%	-0.4%	0.4	-0.5%	-9.6%
CC(=O)C1=C(C)NC(SCC(=O)c2ccc(F)cc2)=C(C#N)C1c1ccco1 (stereo unspecified)	-17.7%	3.6	-4.9%	-0.6%	8.2	3.6%[38.3 µM]	?
Cc1nc(Cc2nnc(SC(C)C(=O)Nc3ccccc3)o2)cs1 (stereo unspecified)	.	-2.6	-56.3%[inhibitor]	0.3%	.	1.9%	.
Cc1cc(NC(=O)CSc2ccc3c(c2)OCCO3)no1	-3.6%	-2.3	20.7%	-1.3%	-0.1	-2.7%	4.6%
COc1cc(/C=N/n2cnn(Cc3ccccc3Cl)c2=S)cc(OC)c1OC	-26.7%	-6.6	2.2%[15.4 µM]	.	0.9	0.9%	?
CCOC(=O)CCc1c(C)n[nH]c1C	7.5%	-4.4	-19.6%	.	3.0	2.8%	12.8%
CCOc1ccc2nc(SC3CC(=O)N(c4ccccc4)C3=O)sc2c1 (stereo unspecified)	-37.5%	-0.8	-30.9%[inhibitor]	4.1%	8.3	-0.4%	11.6%
CCOc1ccc(NC(=O)N2CC=C(n3c(=O)[nH]c4ccccc43)CC2)cc1	-19.6%	-0.1	?	?	1.8	0.1%	-1.5%
CCCC(CCC)=NNc1ccc(S(=O)(=O)Nc2ccccc2OC)cc1[N+](=O)[O-]	-9.4%	-4.3	-7.4%	1.3%	.	-0.3%	-2.5%
COc1cc2cc(CN(C(=O)Nc3ccccc3)C3CCCC3)c(=O)[nH]c2cc1OC	0.9%	-2.9	-13.7%	-41.0%	0.6	-0.6%	-16.8%
O=C1C=CCCC1	9.5%	3.3	.	-0.2%	.	0.8%	.
O=C(NNc1ccccn1)C(=O)NNS(=O)(=O)c1ccc(Cl)cc1	2.4%	-2.1	?	-0.4%	-0.8	0.4%	14.1%
COc1ccc(CCNC(=O)c2ccc(Br)cc2)cc1	0.6%	-0.6	8.3%[15.4 µM]	.	0.1	0.0%	-1.6%
CCOc1nc(C)ccc1-c1noc(-c2ccncc2)n1	3.0%	-2.1	-0.9%	-0.5%	6.0	0.3%	30.9%[activator]
COc1cccc(C(C(=O)NC2CCCC2)N(C(=O)c2ccco2)c2ccccc2)c1OC (stereo unspecified)	-5.3%	-2.1	-0.5%[15.4 µM]	.	2.6	-0.5%	17.9%
CC(C)n1c(SCC(=O)Nc2ccccc2N2CCCCC2)nc2c1c(=O)n(C)c(=O)n2C	-2.8%	1.7	-15.4%	0.0%	2.6	.	-1.6%
O=C(c1ccc(OCC2CCCO2)cc1)N1CCc2ccccc2C1 (stereo unspecified)	-3.4%	-1.7	-3.1%[15.4 µM]	.	4.6	1.9%	14.3%
O=C(CN1CCOc2ccccc21)NCc1ccco1	-0.8%	3.9	-0.9%	2.3%	2.5	3.0%	?
O=C(c1ccc2noc(-c3ccccc3)c2c1)N1CCN(c2ccccc2)CC1	-1.5%	?	0.5%	-4.1%	.	0.9%	.
CCC(=O)Nc1cc(C(=O)OCC(=O)c2ccccc2)ccc1C	11.0%	-0.3	-1.2%	-3.1%	-1.3	0.2%	3.1%
Cc1ccc(/C=C2/N=C(c3ccccc3)NNC2=O)cc1	-0.8%	-7.0	11.5%[15.4 µM]	.	2.4	-1.5%	21.3%
O=c1c(-c2ccc([N+](=O)[O-])cc2)coc2c(O)c(O)ccc12	-25.5%	4.3	16.7%[15.4 µM]	.	2.8	-2.4%	1.4%
Further compounds follow.
SMILES	gsp antag	D2 ag	gsp agonist	ClpP mod	Menin-MLL FL inh	PINK1 modulator	Sfp PPTase inh
Cc1ccc(C(=O)/C=C/NNC(=O)c2ccccc2O)cc1	-18.9%	2.0	1.1%	-0.9%	5.1	?	12.9%
Cc1ccc(CNS(=O)(=O)c2c(C)nc3scc(C)n3c2=O)cc1	3.3%	-2.8	20.4%	-13.3%&-28.0%	.	0.7%&1.8%	0.2%
N[C@@H](CCC(=O)N[C@@H](CSN=O)C(=O)NCC(=O)O)C(=O)O	-1.8%	3.4	.	0.1%	.	0.2%	.
O=C(COC(=O)c1cc(=O)[nH]c(=O)[nH]1)Nc1ccccc1F	4.4%	0.3	1.6%[15.4 µM]	0.9%	.	0.6%	.
